High-throughput results from PubChem BioAssay.
T cruzi repl – blocks replication of Trypanosoma cruzi. T. cruzi beta-gal in NIH3T3, luminescence, 90 h. inhibition, % (test concentration not listed). actives 1.4% (n = 300,000). AID 1885;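 active means mean inhibition across valid replicates above about 55%, limit read from the data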;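 further: signal also drops with host cell toxicity which is not excluded here; 0% = plate median of DMSO wells and 100% = zero luminescence signal; higher percent means less beta-gal luminescence so fewer parasites; stock transfer was 50 nL into about 50 µL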
E coli growth – inhibitors of Escherichia coli growth; OD600, 23 h; hits give low values; OD600 absorbance (test concentration not listed); actives 0.21% (n = 330,000);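 active means OD600 absorbance below the run mean of sample wells minus 3.6 SD, in any replicate, cut at about 0.56 in these data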;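 further: stock transfer was 300 nL into about 60 µL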
Beta cell apopt – blocks beta cell apoptosis | INS-1E cytokine-induced death, ATP luminescence, 48 h; percent of positive-control rescue, neutral wells zero | protection from apoptosis, % (no concentration beside the values) | actives 0.8% (n = 300,000) | AID 435005;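 active means all replicates at 75% or more, or half of them and the mean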;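 further: 0% = cytokine-treated negative control wells and 100% = positive control rescue; higher means more ATP so stronger rescue from cytokine killing; wells of about 40 µL received 100 nL stock; the first replicate is given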
MLL AF4-AF9 inh – blocks AF4 peptide binding to human AF9; actives 0.47% (n = 350,000); AID 651704; P42568; AlphaScreen, biotin-AF4 peptide binding to FLAG-AF9; inhibition, % at 10 µM;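 active means every replicate reaching a set inhibition limit, whatever the replicate mean, cut at about 25% in these data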;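 further: 0% = plate neutral control median and 100% = total signal loss; the record names both 10 and 1 µM as test concentration; the first replicate is given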
Target sequence (P42568 whole entry, looked up): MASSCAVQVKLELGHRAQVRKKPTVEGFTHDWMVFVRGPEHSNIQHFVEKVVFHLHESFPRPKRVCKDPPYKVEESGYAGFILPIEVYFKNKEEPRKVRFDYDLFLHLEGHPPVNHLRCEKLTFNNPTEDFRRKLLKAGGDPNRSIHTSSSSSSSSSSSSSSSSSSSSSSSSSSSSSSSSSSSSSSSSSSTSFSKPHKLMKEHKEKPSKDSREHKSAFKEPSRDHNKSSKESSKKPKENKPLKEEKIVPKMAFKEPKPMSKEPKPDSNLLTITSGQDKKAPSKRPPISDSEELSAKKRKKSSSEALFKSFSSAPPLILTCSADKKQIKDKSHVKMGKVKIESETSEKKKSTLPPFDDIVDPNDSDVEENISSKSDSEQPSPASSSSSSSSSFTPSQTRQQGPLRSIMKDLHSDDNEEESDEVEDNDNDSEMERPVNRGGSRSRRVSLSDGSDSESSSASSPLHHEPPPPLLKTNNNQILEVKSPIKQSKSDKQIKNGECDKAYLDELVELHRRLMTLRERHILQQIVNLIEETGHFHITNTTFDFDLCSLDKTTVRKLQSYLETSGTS
Bfl-1 A1 inh – inhibitors of the anti-apoptotic protein A1, read as caspase activation | MEF A1-2A-BIM cells, Caspase-Glo 3/7 luminescence, 3 h; percent of clofoctol response, vehicle zero | caspase activation, % (test concentration not listed) | actives 0.066% (n = 330,000) | AID 2462;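 active means over half of replicate activation scores above 10%, or exactly half above 10 with the replicate mean above 10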;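 further: wells of about 30 µL received 50 nL stock; many hits fall short of the cut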
FGF22 binding – FGF22 (human) thermal shift binding. Q9HCT0. recombinant FGF22 thermal shift, SYPRO orange fluorescence; percent of sucrose octasulfate shift, DMSO zero. calls only at 9.99 µM. actives 1.5% (n = 340,000). AID 651658;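 active means melting point raised past a set limit in the mean and every replicate; three in four hits are not shown here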
Target sequence (Q9HCT0 whole entry, looked up): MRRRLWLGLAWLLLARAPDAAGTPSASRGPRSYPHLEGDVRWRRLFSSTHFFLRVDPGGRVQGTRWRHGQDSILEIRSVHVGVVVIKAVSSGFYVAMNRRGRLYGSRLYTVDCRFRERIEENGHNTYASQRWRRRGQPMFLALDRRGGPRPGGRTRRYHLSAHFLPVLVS
UCH37 DUB inh – blocks the human deubiquitinase UCH37; Q9Y5K5; purified proteasome/UCH37, Ub-AMC cleavage fluorescence; inhibition, % (concentration not given with the values); actives 0.33% (n = 330,000);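 active means mean of two replicates above 20%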;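 further: 0% = compound-free wells with enzyme and 100% = wells lacking proteasome; stock transfer was 100 nL into about 20 µL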
Target sequence (Q9Y5K5 whole entry, looked up): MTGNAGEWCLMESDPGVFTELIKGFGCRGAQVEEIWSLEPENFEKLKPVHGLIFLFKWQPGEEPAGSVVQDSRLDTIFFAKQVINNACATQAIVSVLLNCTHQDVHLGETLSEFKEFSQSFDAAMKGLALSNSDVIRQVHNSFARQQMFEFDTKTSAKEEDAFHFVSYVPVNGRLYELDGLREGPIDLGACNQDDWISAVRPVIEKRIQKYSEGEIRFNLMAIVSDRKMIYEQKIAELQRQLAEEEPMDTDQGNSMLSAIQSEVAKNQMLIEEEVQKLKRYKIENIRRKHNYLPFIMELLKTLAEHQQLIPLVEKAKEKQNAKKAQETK
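System: Proteasome-associated human UCH37 deubiquitinase; Input: 0.15 nM proteasome in added enzyme buffer; Also added: Ub-AMC substrate from 1 µM stock; Incubation: 30 min compound-proteasome preincubation then 25 min substrate reaction, room temperature; Detection: fluorescence, ex 355 nm, em 460 nm; Read-out: % inhibition of Ub-AMC cleavage fluorescence; Benchmarks: no-proteasome and no-compound wells.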
rRNA inh HTS – inhibitors of bacterial rRNA selective over humanized ribosomes; AID 720706; GFP signal change (wild-type ribosome), % (concentration not given with the values); actives 1.6% (n = 350,000); E. coli WT GFP vs humanized-ribosome RFP mutants, fluorescence, 24 h; hits give low values; DMSO median 0, no signal -100;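 active means significant combined selectivity score with lowered wild-type GFP, culture density cut under 30%, mutant RFP and density less affected; inactive means any of these conditions unmet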; further: one replicate is shown; some compounds called inactive have numbers as strong as hits
rRNA inh HTS OD600 – further read-out of rRNA inh HTS, marked with its call; OD600 change, %; measured here: OD600 growth;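 optical density of the mix in the first replicate; 0 = DMSO median and -100 = no signal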
rRNA inh HTS RFP – second read-out of rRNA inh HTS, no call of its own (marks repeat the call); RFP signal change, %; measured here: RFP humanized mutant strains;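 first replicate; 0 = DMSO median and -100 = no signal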
The depositor's hits bear a star; i = inactive; . = no result given; + = active, no number; & = joins results of further samples. Only part of the results is shown; rates above refer to the full screens.

SMILES	T cruzi repl	E coli growth	Beta cell apopt	MLL AF4-AF9 inh	Bfl-1 A1 inh	FGF22 binding	UCH37 DUB inh	rRNA inh HTS	rRNA inh HTS OD600	rRNA inh HTS RFP
CCN(CC)CCN1C(=O)C(O)=C(C(=O)c2cc3ccccc3o2)C1c1cccnc1 (centres undefined)	2	0.8	-9	.	0.1	.	7.1	.	.	.
Cc1ccc(OCCn2ccc(=O)[nH]c2=O)cc1C	5	0.72	4	.	0.6	.	-0.7	.	.	.
Cc1ccc2nc(SCC(=O)Nc3cccc4ccccc34)nc(=O)n2c1	-6	0.62	-2	0.4	-0.2	i	7.0	9	5	1.3
O=C(Nc1nc(-c2cccnc2)cs1)c1ccccc1F	-8	0.72	.	-0.3	-5.5	i	1.2	-9	4	-2.6
COC(=O)c1ccc(Cn2c(O)c(N=NC(N)=S)c3ccccc32)o1	14	.	-3	3.7	-0.3	i	.	10	0	-4.6
CCOc1ccc2nc(NC(=O)CSc3nc4c(c(=O)n(C)c(=O)n4C)n3CC)sc2c1	5	0.72	-1	.	-0.1	.	0.3	.	.	.
Cc1cccc(C#Cc2ccccc2)n1	.	0.71	4	2.3	-9.5	i	6.6	-49	-70	-13
COc1ccccc1CCC(=O)N(C)CC(=O)Nc1ccc(F)cc1	0	0.64	4	1.1	-0.3	i	-1.0	5	8	0.2
COc1ccc(-c2coc3cc(O)c(OC)cc3c2=O)cc1	.	0.81	5	-3.3	-7.7	i	5.8	-12	-11	-5.2
O=C(Nc1ccc(Cl)cc1)Nc1ccc(S(=O)(=O)Nc2ncccn2)cc1	-14	0.59	1	-0.8	-1.4	i	1.9	-3	-6	-7.3
COc1ccc(-c2csc(N3CCOCC3)n2)cc1OC	-11	0.76	-6	.	0.4	.	3.8	.	.	.
COc1ccccc1NS(=O)(=O)c1cccc(NC(=O)c2cncc(Br)c2)c1	.	0.65	0	-0.3	-0.6	i	1.1	-12	-6	3.1
Cc1cc(C)n(C(=O)CNC(=O)c2ccc(C(C)(C)C)cc2)n1	-26	0.7	4	-1.6	-0.4	i	2.0	0	3	-0.4
Cc1nnc(N)nc1C	-13	0.76	-7	.	0.0	.	1.6	.	.	.
COc1ccc(C2(C(=O)Nc3ccc(C)cc3)CCOCC2)cc1	-4	0.65	2	-1.3	0.6	i	3.7	2	5	1.3
COc1ccc(C(=O)C2CCCN(Cc3sc(N4CCCC4)nc3Cl)C2)c(OC)c1 (centres undefined)	63*	0.66	10	9.8	0.4	.	3.7	-28	-44	-5.9
Cc1ccc(NC(=O)c2cccc(NC3=NC4CS(=O)(=O)CC4S3)c2)cc1 (centres undefined)	8	0.81	2	0.5	.	i	1.7	-3	6	-0.3
CN1CCN(Cc2coc3c(Cl)cc(Cl)cc3c2=O)CC1	9	0.69	-4	-3.5	-0.6	i	4.3	11	9	2.0
CC(=O)NC(Nc1nc2c(s1)CCCC2)(C(F)(F)F)C(F)(F)F	-17	0.69	5	.	-0.1	.	3.6	.	.	.
Cn1ccc(C(=O)N/N=C/c2cccnc2)n1	-17	.	-1	-2.8	-2.0	i	.	3	6	-4.1
CC1Sc2ccc(S(=O)(=O)NCCc3ccccc3)cc2NC1=O (centres undefined)	2	0.69	-3	-3.1	-0.7	i	5.2	-31	-39	-5.7
CCOC(=O)N1CCN(C(=O)COc2ccc3oc4c(c3c2)CCCC4)CC1	5	0.7	2	6.6	0.7	i	5.9	-1	-1	0.9
CCOC(=O)CSc1nc2sc3c(c2c(=O)n1-c1ccccc1)CCN(C)C3	49	0.74	.	2.0	0.5	i	-73	-7	2	-1.2
COc1ccc(NC(=O)c2ccccc2C)cc1	-22	0.68	-2	-1.9	-3.9	i	1.9	2	8	-1.7
O=S1(=O)CCN2C=Nc3sc4c(c3C2=N1)CCCC4	-12	0.7	0	.	-1.1	.	1.1	.	.	.
CSc1ccccc1OCc1cc(C(=O)NC2CCOC2)no1 (centres undefined)	6	0.65	-3	1.1	-0.6	i	3.3	-3	-7	-0.4
COc1ccccc1NC(=O)CSc1nc2sc(C)c(C)c2c(=O)n1C	0	0.73	-1	4.0	0.5	i	0.4	-7	9	-2.5
CCN(C(=O)COC(=O)c1c2c(nc3ccccc13)CCC2)c1c(N)n(Cc2ccccc2)c(=O)[nH]c1=O	.	0.68	.	0.9	.	i	-1.1	-4	0	2.3
COc1ccc(-n2nc(C(=O)NCC(=O)NCCC3=CCCCC3)c3ccccc3c2=O)cc1OC	-3	0.63	3	-3.6	1.1	i	36*	-1	-7	0.1
Cc1ccc(-c2c3c(=O)n(C)c(=O)n(C)c3cn2-n2cnnc2)cc1	1	0.69	-27	.	-0.3	.	-1.8	.	.	.
COc1ccc2c(c1)OCC(O)(c1ccccc1)C2=O (centres undefined)	.	0.69	.	0.6	.	i	1.2	0	-6	-1.8
CC(=O)OCC(=O)NCCCOc1cccc(CN2CCCCC2)c1	-8	0.69	.	-1.9	0.5	i	-1.1	6	10	1.6
CCc1cc2c(Sc3nc4ccccc4s3)ncnc2s1	31	0.76	-38	.	0.4	.	-2.3	1	2	0.8
COc1ccc(OC)c(CCNC(=O)Cn2sc3nc(C)cc(C)c3c2=O)c1	46	0.74	.	.	2.9	.	12	.	.	.
CCOC(=O)N1CCN(S(=O)(=O)N2CCCC(C(=O)NCc3ccccc3OC)C2)CC1 (centres undefined)	-2	0.66	4	0.2	1.6	i	4.2	5	5	-0.8
CC(=O)c1cccc(NC(=O)c2sc3nc4n(c(=O)c3c2C)CCCCC4)c1	-6	0.66	8	0.9	0.8	i	3.0	-22	-24	-3.5
CN(C)/C=C(/C(=O)c1ccc(Cl)cc1)S(=O)(=O)c1ccc(Cl)cc1	6	0.69	-3	.	-0.3	.	1.7	.	.	.
O=C(CSc1nc2ccccc2c(=O)n1-c1ccc(OC(F)F)cc1)NCc1cccs1	13	0.69	11	-0.7	-0.2	i	-1.6	.	.	.
COc1ccc(C)cc1NS(=O)(=O)c1ccc2c(c1)n(C)c(=O)n2C	6	0.65	0	1.4	0.3	i	2.2	4	-4	0.9
CCN1CCN(CC(O)COc2ccc(C)c(C)c2)CC1 (centres undefined)	-2	0.7&0.73	-10	-1.8	0.5	i	4.4&-5.1	15	13	0.5
COC(=O)c1ccccc1NC(=O)c1ccc(-c2cccc(Cl)c2)o1	-5	0.72	6	.	0.3	.	-23	.	.	.
CCOC(=O)C1CCN(C(C(=O)NC2CCCC2)c2ccc(C)cc2)CC1 (centres undefined)	-1	0.71	-9	-9.2	0.4	i	4.1	-7	-6	5.1
O=C(Cc1ccccc1)Nc1ccc(NC(=O)c2ccccc2)nc1	2	0.64	4	-4.5	-2.0	i	-1.4	5	10	2.8
CCOc1ccc(S(=O)(=O)N2CCCCC2)cc1NC(=O)CN1C(=O)NC(C)(c2ccccc2)C1=O (centres undefined)	12	0.7	7	-29	-0.2	i	-1.4	-6	-9	2.6
Cc1ccc(C(=O)NC2CCSC2=O)cc1 (centres undefined)	-8	0.65	2	1.9	0.0	i	4.2	3	12	-11
CCOC(=O)c1cnn(-c2nc(-c3ccc(C)cc3)cs2)c1C(F)(F)F	-10	0.68	2	.	0.3	.	-42	.	.	.
COCCCNC(=O)C[C@H]1C[C@H](C(=O)N2CCOCC2)[C@@]2(C)c3[nH]c4cc(CCC(=O)N(C)C)ccc4c3CCN2C1=O	.	0.7	.	-1.9	.	i	2.5	2	10	-6.3
Cc1cc(C)c(NC(=O)CNC(=O)COC(=O)Cc2cccs2)c(C)c1	-13	0.65	1	-24	0.4	i	2.0	4	7	1.8
COCCNC(=O)c1cc(-c2ccc3c(c2)OCO3)on1	-14	0.65	4	.	-11	.	3.4	.	.	.
O=C1CC(NCc2ccco2)C(=O)N1CCc1ccccc1 (centres undefined)	5	0.73	7	.	0.4	.	-2.9	.	.	.
Carrying on:
SMILES	T cruzi repl	E coli growth	Beta cell apopt	MLL AF4-AF9 inh	Bfl-1 A1 inh	FGF22 binding	UCH37 DUB inh	rRNA inh HTS	rRNA inh HTS OD600	rRNA inh HTS RFP
Cn1c(=O)c(=O)n(C)c2cc(S(=O)(=O)N3CCN(c4cccc(C(F)(F)F)c4)CC3)ccc21	-15	0.73	6	.	0.0	.	-19	.	.	.
CC1(c2nnc(-c3cccc(Cl)c3)o2)CC(c2cccnc2)=NO1 (centres undefined)	2	0.7	.	.	1.1	.	-2.8	.	.	.
O=Cc1c(N2CCSCC2)nc2ccccn2c1=O	-6	0.64	-3	1.9	0.2	i	9.0	6	-4	2.1
CCOc1cc(C=NNC(=O)c2cccc(S(=O)(=O)N3CCCC3)c2)ccc1O	.	0.71	-1	-1.9	0.8	+	11	7	6	-3.0
O=C(NCCO)c1cc2cc(Cl)cc(Cl)c2oc1=O	-2	0.71	3	.	-0.1	.	-9.0	.	.	.
CN(C)S(=O)(=O)c1ccc(N2CCCC2=O)c([N+](=O)[O-])c1	8	0.72	0	.	0.8	.	1.3	.	.	.
Cc1cccc(C)c1NC(=S)N(CCN(C)C)C(C)c1ccccn1 (centres undefined)	3	0.69	-5	0.4	-0.2	i	1.6	6	11	-0.1
Cc1nc(C)c(C(=O)OCC(=O)NCCc2ccc(F)cc2)s1	.	0.68	.	-0.3	.	.	1.4	9	3	0.4
CC(=O)C1=C(C)OC(N)=C(C#N)C1c1cccnc1 (centres undefined)	-9	0.66	-6	-0.1	0.1	i	-7.0	11	17	0.1
COc1ccc(CCNC(=O)CCNC(=O)N2CC(=O)Nc3ccccc32)cc1OC	-22	0.66	-5	-14	-0.7	i	5.3	4	14	-3.5

Another view of part of the listing above:
SMILES | T cruzi repl | E coli growth | Beta cell apopt | MLL AF4-AF9 inh | Bfl-1 A1 inh | FGF22 binding | UCH37 DUB inh | rRNA inh HTS | rRNA inh HTS OD600 | rRNA inh HTS RFP
COc1ccccc1NS(=O)(=O)c1cccc(NC(=O)c2cncc(Br)c2)c1 | . | 0.65 | 0 | -0.3 | -0.6 | i | 1.1 | -12 | -6 | 3.1
COc1ccc(OC)c(CCNC(=O)Cn2sc3nc(C)cc(C)c3c2=O)c1 | 46 | 0.74 | . | . | 2.9 | . | 12 | . | . | .

Next compounds:
SMILES	T cruzi repl	E coli growth	Beta cell apopt	MLL AF4-AF9 inh	Bfl-1 A1 inh	FGF22 binding	UCH37 DUB inh	rRNA inh HTS	rRNA inh HTS OD600	rRNA inh HTS RFP
COc1cccc(-c2ncc3ccccc3c2COC(=O)N(C)C)c1	.	0.65	3	.	-1.0	i	1.3	-12	-11	2.5
CCCCN(CC)C(=O)c1ccc(Cl)c(Cl)c1	-18	0.68	6	.	0.7	.	-0.1	.	.	.
CC1CCc2nc(NC(=O)CN3CCN(Cc4ccc5c(c4)OCO5)CC3)sc2C1 (centres undefined)	28	0.76	17	.	0.3	.	-4.1	.	.	.
COc1cccc(-n2c(N)c(C(=O)Nc3c(C)n(C)n(-c4ccccc4)c3=O)c3nc4ccccc4nc32)c1	13	.	3	.	0.5	i	.	1	6	8.9
COc1cc(C2CC(=O)N(CC(=O)NCc3ccco3)c3ccccc3S2)cc(OC)c1OC (centres undefined)	6	0.69	3	-14	0.2	i	0.4	-5	-11	-3.5
O=C(Nc1nccs1)c1cc2c(s1)CCCCC2	22	0.7	-1	.	-0.5	.	-3.7	.	.	.
